# H5N1 antiviral: MDCK cell protection from H5N1 avian flu | cytopathic effect, luminescence, 72 h; stronger effect = higher value; no value below 0 was filed and about half of the inactive calls have no number; reference of the scale not given here | inhibition, % at 50 µM | 0.07% of 96,000 active; in the data active means inhibition above about 25%
# * hit, by the source's call; i = inactive.
# Start of the data: the first 19 compounds, ahead of the listing:
SMILES,H5N1 antiviral
COCCNC(=O)c1onc(CSc2cc(C)cc(C)c2)c1C(=O)O,0.1
CC(C)Cn1c(N)c(C(=O)CSc2nc3ccccc3n2C)c(=O)n(C)c1=O,i
O=C(CSc1nc2ccccc2s1)N1c2ccccc2Sc2ccc(Cl)cc21,0.3
CCCCOCCCNC(=O)N[C@@H](CCSC)C(=O)OC,1.1
O=C1C2C3C=CC(C3)C2C(=O)N1c1ccc(-c2nc3ccccc3o2)cc1 (stereo unspecified),0.7
O=C1OCCC1Sc1nnnn1-c1ccccc1 (stereo unspecified),0.2
C(=N\c1nc2ccccc2n1Cc1ccccc1)/c1cccs1,i
O=C(c1ccc(CS(=O)(=O)c2c(Cl)cccc2Cl)o1)N1CCCC1,4.7
Cc1ccc(C(=O)N/N=C/c2nc3ccccc3n2C)cc1,4.2
Cc1ccc2nc(SCCC(=O)O)cc(C)c2c1,0.3
CCOc1ccccc1C1CC(c2ccc(Cl)cc2)Nc2nc(N)nn21 (stereo unspecified),i
Cc1ccnc(NS(=O)(=O)c2ccc(NC(=O)C3CCCCC3C(=O)O)cc2)n1 (stereo unspecified),i
COc1ccccc1-c1cc2nc(C)c(CCC(=O)NCc3ccco3)c(C)n2n1,0.0
O=S1(=O)N=C(N2CCN(Cc3ccc4c(c3)OCO4)CC2)c2ccccc21,0.2
O=C(CSc1ccc(Cl)cc1Cl)N1CCC(c2nc3ccccc3s2)CC1,0.3
Cn1c(=O)cc(OCC(=O)N2CCC(N3CCCCC3)CC2)c2ccccc21,1.5
FC(F)(F)c1cccc(OCCOCCn2cncn2)c1,0.2
COC(=O)C1=C(C)C(c2ccc(OC)cc2)NC(=S)N1 (stereo unspecified),i
CCOC(=O)c1c(C)[nH]c(O)c1C=Nc1ccc(C(F)(F)F)cc1,i

# The whole of this part, repeating the preview:
SMILES,H5N1 antiviral
COCCNC(=O)c1onc(CSc2cc(C)cc(C)c2)c1C(=O)O,0.1
CC(C)Cn1c(N)c(C(=O)CSc2nc3ccccc3n2C)c(=O)n(C)c1=O,i
O=C(CSc1nc2ccccc2s1)N1c2ccccc2Sc2ccc(Cl)cc21,0.3
CCCCOCCCNC(=O)N[C@@H](CCSC)C(=O)OC,1.1
O=C1C2C3C=CC(C3)C2C(=O)N1c1ccc(-c2nc3ccccc3o2)cc1 (stereo unspecified),0.7
O=C1OCCC1Sc1nnnn1-c1ccccc1 (stereo unspecified),0.2
C(=N\c1nc2ccccc2n1Cc1ccccc1)/c1cccs1,i
O=C(c1ccc(CS(=O)(=O)c2c(Cl)cccc2Cl)o1)N1CCCC1,4.7
Cc1ccc(C(=O)N/N=C/c2nc3ccccc3n2C)cc1,4.2
Cc1ccc2nc(SCCC(=O)O)cc(C)c2c1,0.3
CCOc1ccccc1C1CC(c2ccc(Cl)cc2)Nc2nc(N)nn21 (stereo unspecified),i
Cc1ccnc(NS(=O)(=O)c2ccc(NC(=O)C3CCCCC3C(=O)O)cc2)n1 (stereo unspecified),i
COc1ccccc1-c1cc2nc(C)c(CCC(=O)NCc3ccco3)c(C)n2n1,0.0
O=S1(=O)N=C(N2CCN(Cc3ccc4c(c3)OCO4)CC2)c2ccccc21,0.2
O=C(CSc1ccc(Cl)cc1Cl)N1CCC(c2nc3ccccc3s2)CC1,0.3
Cn1c(=O)cc(OCC(=O)N2CCC(N3CCCCC3)CC2)c2ccccc21,1.5
FC(F)(F)c1cccc(OCCOCCn2cncn2)c1,0.2
COC(=O)C1=C(C)C(c2ccc(OC)cc2)NC(=S)N1 (stereo unspecified),i
CCOC(=O)c1c(C)[nH]c(O)c1C=Nc1ccc(C(F)(F)F)cc1,i
CCOC(=O)C1=C(C)NC(=O)NC1c1cc2c(cc1Br)OCO2 (stereo unspecified),i
Cc1ccc(-c2nc(CN(C)C)cc(CN(C)C)c2O)cc1,i
NNC(=O)CN1C(c2ccc(Cl)cc2)=Nc2ccc(Br)cc2C1c1ccccc1 (stereo unspecified),i
Cc1ccc(NCc2nnc(SCC(=O)NCCc3ccccc3)n2C)cc1,i
CCn1cc(C(=O)OCC(=O)Nc2cccc(S(=O)(=O)N3CCOCC3)c2)c(=O)c2ccc(C)nc21,i
O=C(Cn1nnc(-c2cccs2)n1)OC1CCCCC1,i
O=C1CC(Cc2ccccc2)C(=O)N1CCc1ccc2c(c1)OCO2 (stereo unspecified),3.4
CCOc1cc(-c2ccc(N)c(OCC)c2)ccc1N,0.2
Cc1ccc(-c2noc(CCC(=O)Nc3ccc4c(c3)OCO4)n2)cc1,i
O=C1NC(=O)[C@]2(Cc3ccccc3N3CCN(c4ccccc4)CC32)C(=O)N1Cc1ccccc1 (stereo partly specified),i
O=C(CN1C(=O)c2ccccc2S1(=O)=O)Nc1ccc(S(=O)(=O)N2CCCCC2)cc1,0.6
CCc1nnc(NC(=O)CN2CCN(C3CCCCC3)CC2)s1,i
CCCCc1nc(NCC2CCCO2)c(C#N)c2c1COC(C)(C)C2 (stereo unspecified),0.7
COC(=O)N1N=C(c2ccccc2)CC1(O)C(F)(F)F (stereo unspecified),i
CC(=O)Nc1ccc(Sc2ncccc2C(=O)Nc2ccc(F)cc2)cn1,1.9
COc1cc2[nH]c(=O)n(-c3cccc(Cl)c3)c(=O)c2cc1OC,i
CS(=O)c1ccccc1COC(=O)Nc1ccc(Cl)cc1 (stereo unspecified),i
Cn1c(CNC(=O)Nc2cccc(Cl)c2)nnc1SCc1ccccc1,i
CCC(=O)Nc1cccc(NC(=O)c2cccnc2)c1,i
COc1cccc(C(=O)Nc2c(C(N)=O)oc3ccccc23)c1,i
Nn1c(SCC(=O)NCCC2=CCCCC2)nnc1C1CCCCC1,0.5

# Brought forward from above: 2 entries, followed by the next part.
SMILES,H5N1 antiviral
COc1cccc(C(=O)Nc2c(C(N)=O)oc3ccccc23)c1,i
Nn1c(SCC(=O)NCCC2=CCCCC2)nnc1C1CCCCC1,0.5
CCOc1ccc(-c2noc(-c3ccncc3)n2)cc1OCC,1.2
COc1cc(C(c2nnnn2C(C)(C)C)N2CCN(C)CC2)cc(OC)c1OC (stereo unspecified),1.8
O=C(NC1CCCC1)c1ccc(S(=O)(=O)N2CCCC2)cc1,i
O=C(CSC1CCCCC1)N1CCN(c2ccccc2)CC1,0.9
O=C(O)c1ccc(CSc2n[nH]c(-c3ccco3)n2)cc1,i
Cc1ccc(N=Cc2nc(/C=C/c3cccc([N+](=O)[O-])c3)oc2O)cc1,i
Clc1ccc(CSc2nnc(-c3ccncc3)o2)c(Cl)c1,2.9
COc1ccc(-c2cc(C(F)(F)F)n3nc(C(=O)N4CCCC4)cc3n2)cc1,0.5
Cc1csc(NC(=O)C2CCN(S(=O)(=O)c3ccc4c(c3)oc(=O)n4C)CC2)n1,i
O=C(NC12CC3CC(CC(C3)C1)C2)c1cc2nc(-c3ccco3)cc(C(F)(F)F)n2n1,i
Cc1cc(NS(=O)(=O)c2ccc(NC(=O)Nc3ccccc3)cc2)no1,1.9
COc1cc2c(cc1OC)-c1cc(N3CCCCCC3)nc(=O)n1CC2,2.3
CCC1CCCCN1C(=O)c1nn2cccnc2c1Cl (stereo unspecified),1.6
Cc1cc(=O)[nH]c2c1c(C)nn2C1CCOC(C)(C)C1 (stereo unspecified),i
O=C(c1cc(-c2ccc3c(c2)OCO3)on1)N1CCN(c2ccccc2)CC1,i
COc1cccc(Nc2ncnc3ccccc23)c1,0.5
COc1ccc(C2C(C#N)=C(N)Oc3n[nH]c(C)c32)cc1Cn1nc(C)c([N+](=O)[O-])c1C (stereo unspecified),0.3
CCS(=O)(=O)NCc1cn2ccsc2n1,i
COc1cc(C2=NOC(C(=O)Nc3ccc(C)cc3)C2)cc(OC)c1OC (stereo unspecified),0.7
C=C(C)Cn1c(SCC(=O)O)nnc1-c1ccccc1,2.1
Cc1cccc(N2CC(C(=O)Nc3ccc4c(c3)OCO4)CC2=O)c1C (stereo unspecified),0.6
Cc1nn(-c2ccccc2)c2sc(C(=O)OCc3nnc(-c4ccccc4)o3)cc12,i
COc1c2ccc(C(=O)NCc3cc(C(F)(F)F)cc(C(F)(F)F)c3)cc2nn1C,i
COCCn1nnnc1C(C(C)C)N1CCC(Cc2ccccc2)CC1 (stereo unspecified),2.3
CC(C)CCNC(=O)Cc1c(C(=O)O)[nH]c2ccc(Cl)cc12,0.4
CCOC(=O)CN(C(=O)Cn1nnc2ccccc21)C(C(=O)NCCOC)c1ccccc1 (stereo unspecified),i
COc1ccccc1C1=Nn2c(nnc2C2CCCCC2)SC1,1.6
CCOc1cc(CNCCSc2nnnn2C)cc(Br)c1OCc1ccccc1F,i
O=C(O)COc1ccc(Oc2ccccc2)cc1,2.2
O=C(CCN1CCN(CCO)CC1)Nc1ccc(F)c(F)c1,0.4
O=C(NC1CCCC1)C(c1ccc(Cl)cc1)N1CCOCC1 (stereo unspecified),0.6
CCOC(=O)N1CCC(NC(=O)c2ccc3c(c2)ncn3C2CCCC2)CC1,1.4
COc1ccc(Br)cc1C(=O)Nc1cc(C)cc(C)c1,0.1
CC(=O)OC1CC(C)N(C(=O)c2ccccc2)c2ccc(C)cc21 (stereo unspecified),i
CCCc1cc(C(=O)NNC(=S)NC(C)c2ccccc2)cs1 (stereo unspecified),i
O=C(NCc1cccnc1)NC1(C(F)(F)F)Oc2ccccc2O1,0.1
Cc1cccc(OCC(=O)N2CCC(N3CCOCC3)CC2)c1,0.1
O=C(Nc1cccc(-c2nc3ccccc3[nH]2)c1)c1cccc(NC(=O)c2ccco2)c1,i
CCOC(=O)C1=C(C)NC(=O)NC1C (stereo unspecified),i
CC12CCC(=O)N1c1c(sc3nc(N4CCOCC4)c4c(c13)CCCC4)C(=O)N2 (stereo unspecified),1.6
Cc1cccc(OCC(=O)NC(=S)N2CCCc3ccccc32)c1,0.3
c1ccc(N2CCOCC2)c(Nc2nc3ccccc3n3cnnc23)c1,i
CCn1c(SCC(=O)Nc2ccccc2OC)nnc1-c1cnccn1,i
CC(=O)C1=C(O)C(=O)N(Cc2ccccc2)C1c1ccco1 (stereo unspecified),0.7
COc1ccc(NC(=O)CSc2nnc(Cn3nnc4ccccc43)n2C)cc1,i
CC1(C)CC(=O)C2=C(C1)NC(Nc1nc3ccccc3o1)=NC21CCCC1,i
CCOC(=O)c1cnc(Nc2ccc(OCC)cc2)nc1C,0.3
C=CCSc1nc2nc(C)cc(C)n2n1,0.7
Nn1cnnc1N/N=C/c1cc(Br)cc(Br)c1O,i
O=C(CN1CCN(c2cccc(Cl)c2)CC1)N1CCCC1,0.9

# Next section:
SMILES,H5N1 antiviral
COc1ccc(CN=Cc2[nH]c3ccc(Br)c(Cl)c3c2O)cc1,i
Cc1ccc(S(=O)(=O)NC2(C(=O)O)CCCCC2)cc1,i
N/C(=N\OC(=O)c1ccco1)c1ccc(Br)cc1,i
O=C(NC(=S)Nc1cccc(Cl)c1N1CCCCC1)c1ccco1,5.1
O=C(NC(CO)(CO)CO)c1coc(=O)c(Br)c1,i
O=C(Nc1ccccc1)NC1CC2CCC(C1)N2Cc1nnnn1Cc1ccc2c(c1)OCO2 (stereo unspecified),0.5
COc1cc(CNn2c(C)n[nH]c2=S)cc(Cl)c1OCc1ccccc1,0.4
C#CCn1c(=NC(=O)CN2C(=O)CCC2=O)sc2cccc(C)c21,0.6
Cc1cc(C)cc(-n2nnc(C(=O)NCc3ccc4c(c3)OCO4)c2N)c1,0.7
O=C(O)C1CCC(=O)N(C2CC2)C1c1ccccc1 (stereo unspecified),0.4
O=C(c1ccccn1)N(Cc1ccco1)C1(C(=O)NC2CCCCC2)CCCCC1,0.6
COC(=O)c1ccccc1NC(=O)CSc1nc(N)cc(N)n1,0.5
O=C(O)C1CSC(c2cccnc2)N1 (stereo unspecified),0.5
COCCn1cc(C(=O)N2CCN(C)CC2)c2c3ccccc3n(C)c2c1=O,0.1
O=S(=O)(c1ccc(F)cc1)N1CCN(CC(O)COCc2cccs2)CC1 (stereo unspecified),0.4
CC1(C)CC(=O)C2=C(C1)OC(N)=C(C#N)C21C(=O)N2CCCc3cccc1c32 (stereo unspecified),i
CC(C)c1ccc(-c2c(C#N)c(N)nc3c2CCCCC3)cc1,0.3
Cc1cccc(NC(=O)Nc2cccc(F)c2)n1,i
CCCCc1nnc(NC(=O)CC(=O)Nc2ccccc2C(=O)O)s1,0.5
Cc1ccc(CSc2nc3ncccc3[nH]2)cc1,i
COc1ccc(N2CC(C)Cn3c2nc2c3c(=O)n(Cc3ccc(F)cc3)c(=O)n2C)c(OC)c1 (stereo unspecified),i
COc1cccc(CNCCSc2nnnn2C)c1,i
CC(=O)Nc1ccc(NC(=O)c2ccco2)cc1,i
COc1ccc(S(=O)(=O)NCC(=O)N(CC(=O)NCC2CCCO2)c2cc(C)ccc2C)cc1 (stereo unspecified),1.0
O=C(c1ccc2c(=O)n(-c3ccccc3)c(=O)[nH]c2c1)N1CCCCC1,0.7
O=C(Nc1nc(=O)n(C(=O)C2CC2)s1)c1ccccc1,i
COCCNC(=O)CCn1c(=O)oc2ccccc21,i
Cc1ccc(-c2nn3c(=O)c(C)nnc3s2)cc1,i
Cc1cccc(OCCNc2cc(N3CCOCC3)ccc2[N+](=O)[O-])c1,1.7
Cn1c(SCC(=O)Nc2cccc(F)c2)nnc1-c1cccnc1,1.1
O=C(Nc1ccc2c(c1)OCCO2)c1ccc(Br)o1,i
CC1C(c2ccccc2)N(C)C(c2ccccc2)CC1(O)c1ccccc1 (stereo unspecified),i
CC1(C)CC(=O)c2cnc(NC(=O)C3CCCC3)nc2C1,i
Cc1csc(CCc2nc(C)cs2)n1,0.1
CCCCN(c1ccccc1)c1ncnc2nc[nH]c12,0.4
CCOc1ccc2nc(NC(=O)CSc3nc4cccnc4n3C)sc2c1,1.0
CCN(CC)C(=O)C1CCCN(C(=O)Nc2ccc(NC(=O)N3CCCC(C(=O)N(CC)CC)C3)cc2)C1 (stereo unspecified),i
COc1ccc(CNC(=O)c2ccc(NC(=O)CC3SC(N4CCCCC4)=NC3=O)cc2)cc1 (stereo unspecified),0.3
COc1cc(S(=O)(=O)NC(C)C)ccc1Cl,0.8
Cc1ccnc(NC(=O)C2CCC(CNc3c(N4CCCC4)c(=O)c3=O)CC2)c1 (stereo unspecified),1.4
CCn1c(SCc2cccc(C)c2)nnc1-c1ccccc1,2.1
Cc1ccc(S(=O)(=O)NCCCNC(=O)N2CCOCC2)cc1,1.5
CCOc1ncccc1C(=O)OCC(=O)c1cc(C)n(Cc2ccco2)c1C,1.8
CCc1nnc(NC(=O)CSc2ncnc3c2oc2ccccc23)s1,2.1
N#Cc1c(-c2ccc3c(c2)OCO3)ccn2nc(-c3cccc(C(F)(F)F)c3)nc12,i
CCOc1ccccc1N(CC(=O)Nc1cccnc1)S(C)(=O)=O,1.0

# Some of the compounds tested; count on the stated rates, not on these rows.
